Compound activity from PubChem BioAssay.
MLL AF4-AF9 inh = inhibitors of AF4 peptide binding to AF9, primary screen, biochemical, AlphaScreen, biotin-AF4 peptide, FLAG-AF9, single point; Protein AF-9 (Homo sapiens), P42568; inhibition, % at 10 µM; AID 651704, 2012; actives 0.47% (n = 350,000);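 active = every replicate reaching a set inhibition limit, whatever the replicate mean, cut at about 25% in these data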;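 also: 0% = plate neutral control median and 100% = total signal loss; the record names both 10 and 1 µM as test concentration; the first replicate is given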
Target sequence (P42568 whole entry, looked up): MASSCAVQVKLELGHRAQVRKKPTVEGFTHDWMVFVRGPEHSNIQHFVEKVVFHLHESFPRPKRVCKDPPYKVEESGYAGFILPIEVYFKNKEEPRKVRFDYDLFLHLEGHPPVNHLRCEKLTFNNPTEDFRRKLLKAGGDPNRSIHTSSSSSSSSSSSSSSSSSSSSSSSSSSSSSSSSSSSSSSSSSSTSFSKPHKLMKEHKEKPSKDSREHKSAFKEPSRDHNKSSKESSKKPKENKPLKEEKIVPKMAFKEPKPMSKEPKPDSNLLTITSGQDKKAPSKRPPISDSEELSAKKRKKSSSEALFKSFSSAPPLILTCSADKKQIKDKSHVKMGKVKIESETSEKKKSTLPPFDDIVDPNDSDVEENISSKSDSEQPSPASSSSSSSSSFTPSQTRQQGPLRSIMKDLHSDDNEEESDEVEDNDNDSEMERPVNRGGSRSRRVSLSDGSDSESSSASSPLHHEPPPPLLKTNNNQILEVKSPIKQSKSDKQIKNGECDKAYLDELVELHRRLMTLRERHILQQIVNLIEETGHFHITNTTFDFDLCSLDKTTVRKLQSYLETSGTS
The depositor's hits bear a star; & = joins results of further samples. This is a subset; rates above refer to the full screens.

A first look (two entries):
SMILES	MLL AF4-AF9 inh
N#Cc1cccc(-c2ccc(C3[C@@H]4CN(S(=O)(=O)c5ccc(F)cc5)C[C@H]3N4)cc2)c1 (some centres not stated)	-1.9&1.5
CCCNC(=O)C[C@@H]1CC[C@H]2[C@@H](COc3ccc(NC(=O)C4CCCC4)cc3C(=O)N2C)O1	-0.7

This part in full, previewed entries included:
SMILES	MLL AF4-AF9 inh
N#Cc1cccc(-c2ccc(C3[C@@H]4CN(S(=O)(=O)c5ccc(F)cc5)C[C@H]3N4)cc2)c1 (some centres not stated)	-1.9&1.5
CCCNC(=O)C[C@@H]1CC[C@H]2[C@@H](COc3ccc(NC(=O)C4CCCC4)cc3C(=O)N2C)O1	-0.7
CC(=O)N1[C@H](CO)[C@H](c2ccccc2)[C@H]1CNC(=O)c1ccncc1	-2.9
CN(C)C(=O)C[C@H]1CC[C@H]2[C@H](COc3ccc(NC(=O)C4CCC4)cc3C(=O)N2C)O1	-4.3
CCS(=O)(=O)N1CC2(C1)[C@H](c1ccccc1)[C@H](CO)N2C(=O)C1CCCC1	-0.9
CCCCS(=O)(=O)N1CCCc2nc(C)c(C)cc21	-3.2
COc1ccc(NC(=O)N(C)C[C@H]2Oc3ccc(NC(=O)C4CC4)cc3C(=O)N([C@@H](C)CO)C[C@H]2C)cc1	-1.5
N#C[C@H]1[C@@H](c2ccc(C3=CCCC3)cc2)[C@H](CO)N1C(=O)NC1CCCCC1	-2.5
O=C(C1CCC1)N1CC(=O)N2[C@@H](CO)[C@H](c3ccc(-c4ccccc4F)cc3)[C@@H]2C1	-1.9
C[C@@H](C(=O)N(C)C[C@H]1OCc2ccccc2-c2c(n(C)c3ccccc23)C(=O)N([C@@H](C)CO)C[C@@H]1C)c1ccccc1	10.7
O=C(Nc1cccc(F)c1)N1CC(=O)N2[C@@H](CO)[C@@H](c3ccc(-c4ccccc4)cc3)[C@@H]2C1	1.1
CCCC#Cc1ccc([C@@H]2[C@H]3CN(C(=O)NCCC)CC(=O)N3[C@H]2CO)cc1	-1.2
CN(C)CC#Cc1ccc([C@H]2[C@H](CO)N3C(=O)CN(C(=O)c4ccccc4)C[C@@H]23)cc1	-0.4
C[C@H](NC(=O)[C@H]1N[C@H]2c3ccc(C4=CCCCC4)c(=O)n3C[C@H]2[C@@H]1CO)c1ccccc1	3.1
O=C(C[C@H]1CC[C@@H](NC(=O)CCN2CCCCC2)[C@H](CO)O1)Nc1ccccc1	-1.8
Cn1cnc(S(=O)(=O)N[C@H]2CC[C@@H](CC(=O)NCC3CC3)O[C@@H]2CO)c1	-3.6
O=C(Nc1cccc(F)c1)N1CC(=O)N2[C@H](CO)[C@H](c3ccc(C#CCC4CCCC4)cc3)[C@H]2C1	2.0
Cc1cccc(-c2ccc([C@@H]3[C@@H](CO)N4C(=O)CN(C(=O)NC5CCCCC5)C[C@H]34)cc2)c1	1.7
CC(C)CN(C[C@H]1N[C@H](CO)[C@@H]1c1ccccc1)C(=O)C1CCCCC1	-2.5
CN1C(=O)c2cc(NC(=O)C3CCCCC3)ccc2OC[C@@H]2O[C@H](CC(=O)NCC3CCCCC3)CC[C@@H]21	-2.7
C[C@H](CO)N1C[C@H](C)[C@@H](CN(C)Cc2ccc(C(F)(F)F)cc2)OCc2ccccc2-c2c(n(C)c3ccccc23)C1=O	-0.7
O=C(c1ccncc1)N1CC2(C1)[C@H](c1ccccc1)[C@@H](CO)N2CC1CC1	0.0
C[C@@H]1CN([C@@H](C)CO)C(=O)CCCn2cc(nn2)CO[C@H]1CN(C)Cc1ccncc1	-1.4
C[C@@H]1CN([C@@H](C)CO)C(=O)c2cccc(NC(=O)NC3CCCCC3)c2O[C@@H]1CN(C)Cc1ccc2c(c1)OCO2	-1.3
COc1ccc(-c2ccc(C3[C@H]4CNC[C@@H]3N4C(=O)Nc3ccccc3F)cc2)cc1 (some centres not stated)	1.5&6.6
C[C@@H]1CCCCO[C@H](CN(C)S(=O)(=O)c2cccs2)[C@@H](C)CN([C@@H](C)CO)C(=O)c2cc(NS(=O)(=O)c3ccccc3)ccc2O1	-8.0
O=C(CC1CC1)N1CC2(C1)[C@H](c1ccccc1)[C@@H](CO)N2C(=O)c1cnccn1	-13.4
O=C(CC1CC1)N1CC(=O)N2[C@H](C1)[C@H](c1ccc(-c3ccccc3)cc1)[C@@H]2CO	-6.6
CC=Cc1ccc2n(c1=O)C[C@H]1[C@H](CO)[C@@H](C(=O)N(C)C)[C@@H]2N1CC1CCCC1 (mixture of isomers)	-10.5
CCCC#Cc1cnc2c(c1)C(=O)N([C@@H](C)CO)C[C@H](C)[C@@H](CN(C)Cc1ccc3c(c1)OCO3)O2	10.0
CCN1[C@H](C(=O)OC)[C@@H](CO)[C@@H]2Cn3c(ccc(-c4cccc(F)c4)c3=O)[C@@H]21	-0.2
CCNC(=O)[C@@H]1[C@@H](CO)[C@@H]2Cn3c(ccc(-c4cccc(F)c4)c3=O)[C@@H]2N1C(C)=O	-2.6
COC(=O)C[C@H]1CC[C@H]2[C@@H](COc3ccc(NC(=O)c4ccccc4)cc3C(=O)N2C)O1	-0.8
N#C[C@@H]1[C@H](c2ccccc2-c2cccc(F)c2)[C@H](CO)N1C(=O)c1cccnc1	-2.2
O=C(C1CC1)N1C[C@@H]2N[C@H](C1)C2c1ccc(/C=C/c2ccccc2)cc1 (some centres not stated)	10.5
COCC(=O)N1CCC2(CC1)CN(Cc1cc(F)ccc1F)[C@H](CO)c1c2c2ccc(OC)cc2n1C	-3.3
CN(C)C(=O)c1cccc(-c2ccccc2[C@@H]2[C@@H](C#N)N(C(=O)C3CCCC3)[C@H]2CO)c1	-3.0
CN1C(=O)c2cc(NC(=O)c3cnccn3)ccc2OC[C@@H]2O[C@H](CC(=O)NCC3CC3)CC[C@@H]21	-4.2
CO[C@H]1CN(C)C(=O)c2cc(NS(=O)(=O)c3ccc(C)cc3)ccc2OC[C@@H](C)N(Cc2nccs2)C[C@@H]1C	2.9
COCC#Cc1ccc([C@@H]2[C@@H](CO)N3C(=O)CN(C(=O)C4CC4)C[C@H]23)cc1	-0.8
O=C(C[C@@H]1C=C[C@H](NC(=O)C2CCOCC2)[C@H](CO)O1)Nc1ccccc1	-0.4
C=CS(=O)(=O)N(C(=C)C(=O)OC)S(C)(=O)=O	-2.7
Cc1cccc(S(=O)(=O)N2C[C@@H]3N[C@H](C2)C3c2ccc(-c3cccc(C(=O)N(C)C)c3)cc2)c1 (some centres not stated)	-4.8&-2.7
COc1cccc(CN2[C@H](CO)[C@H](c3ccccc3)C23CN(C(=O)C2CCC2)C3)c1	0.5
Cc1ccc(S(=O)(=O)Nc2ccc3c(c2)C(=O)N([C@H](C)CO)C[C@@H](C)[C@H](CN(C)Cc2ccc(C(=O)O)cc2)OCCCC[C@@H](C)O3)cc1	-4.5

A run of entries of the results above, for reference:
SMILES	MLL AF4-AF9 inh
CCN1[C@H](C(=O)OC)[C@@H](CO)[C@@H]2Cn3c(ccc(-c4cccc(F)c4)c3=O)[C@@H]21	-0.2
CCNC(=O)[C@@H]1[C@@H](CO)[C@@H]2Cn3c(ccc(-c4cccc(F)c4)c3=O)[C@@H]2N1C(C)=O	-2.6

The list continues:
SMILES	MLL AF4-AF9 inh
C[C@@H]1CCCCO[C@@H](CN(C)C(=O)Nc2ccccc2)[C@H](C)CN([C@@H](C)CO)C(=O)c2cc(NC(=O)c3ccncc3)ccc2O1	2.2
CCS(=O)(=O)N1CCC2(CC1)CN(Cc1ccccc1F)[C@H](CO)c1c2c2ccc(OC)cc2n1C	1.8
O=C(Cc1cccnc1)N1CC2(C1)[C@@H](c1ccccc1)[C@@H](CO)N2C(=O)C1CCCC1	1.6
CC(=O)N1[C@H](CO)[C@H](c2ccccc2)[C@@H]1CNC(=O)c1ccncc1	-6.4
CC(=O)N1[C@@H]2c3ccc(C4=CCCC4)c(=O)n3C[C@H]1[C@H](CO)[C@H]2C(=O)NCC1CC1	-14.5
Cc1ccc(-c2ccccc2[C@H]2[C@@H](CO)N(C(=O)NC3CCCC3)[C@H]2C#N)cc1	-1.2
CC(=O)N1CCCCN2[C@H](CO)[C@H](c3ccc(-c4ccc(F)cc4)cc3)[C@H]2C1	-0.4
O=C(NC1CCCC1)N1CC2(C1)[C@@H](c1ccccc1)[C@@H](CO)N2CC1CC1	-2.9
COCC(=O)N1CC2(C1)CN(Cc1cccc(OC)c1)[C@H](CO)c1[nH]c3cc(OC)ccc3c12	2.2
N#Cc1ccc(-c2ccc3c(c2)[C@H]2[C@H](CCN2C(=O)C2CCCC2)[C@@H](CO)N3)cc1	-13.5
COc1cccc(-c2ccc3c(c2)[C@H]2[C@H](CCN2C(=O)Cc2ccncc2)[C@H](CO)N3)c1	5.8
Cc1ccc(-c2ccc([C@H]3[C@@H](CO)N4C(=O)CN(C(=O)Nc5ccc(F)cc5)C[C@@H]34)cc2)cc1	0.6
CO[C@H]1CN(C)C(=O)c2ccc(NC(=O)Cc3ccccc3)cc2OC[C@H](C)NC[C@@H]1C	-3.4
COc1cccc(C#Cc2ccc([C@@H]3[C@@H](CO)N4C(=O)CN(C(=O)Cc5cccnc5)C[C@H]34)cc2)c1	4.6
Cc1noc(C)c1NC(=O)Nc1ccc2c(c1)C(=O)N([C@@H](C)CO)C[C@@H](C)[C@@H](CN(C)CC1CCCCC1)O2	-2.8
O=C(c1ccccc1F)N1CC[C@@H]2[C@@H](CO)Nc3ccc(-c4cccc(F)c4)cc3[C@@H]21	-1.6
Cc1noc(C)c1NC(=O)N(C)C[C@@H]1OCCCC[C@@H](C)Oc2ccc(NC(=O)NC3CCCCC3)cc2C(=O)N([C@H](C)CO)C[C@@H]1C	-12.5
CC(C)(C)[S@](=O)N1Cc2cc(C(=O)O)nc(-c3cccc(-c4ccc(F)cc4)c3)c2[C@@H]1CCO	-4.7
CO[C@H]1CN(C)C(=O)c2cc(NC(=O)NC3CCCC3)ccc2OC[C@@H](C)N(CC2CC2)C[C@H]1C	-2.8
O=C(Cc1ccccn1)N1CC(=O)N2[C@H](CO)[C@@H](c3ccc(C#CC4CCCC4)cc3)[C@H]2C1	-1.6
CO[C@@H]1CN(C)C(=O)c2ccc(NC(=O)CC(F)(F)F)cc2OC[C@H](C)NC[C@H]1C	-16.2
CCS(=O)(=O)N1CC(=O)N2[C@H](CO)[C@H](c3ccc(-c4ccc(F)cc4)cc3)[C@@H]2C1	-1.9
CC(C)CC#Cc1cnc2c(c1)C(=O)N([C@H](C)CO)C[C@@H](C)[C@H](CN(C)C(=O)c1ccccc1)O2	1.8
Nc1[nH]c(C(=O)c2ccccc2)c(-c2ccc(F)cc2)c1C(=O)c1c[nH]c2ccccc12	-2.8
O=C(C1CCC1)N1CC(=O)N2[C@@H](CO)[C@@H](c3ccc(C#CCc4ccccc4)cc3)[C@@H]2C1	-4.1
O=C(C1CC1)N1CC(=O)N2[C@H](C1)[C@@H](c1ccc(C#Cc3cccc(F)c3)cc1)[C@@H]2CO	-2.1
COc1ccccc1NC(=O)N1C[C@@H]2N[C@H](C1)C2c1ccc(-c2cccc(C(=O)N(C)C)c2)cc1 (some centres not stated)	-3.6
COc1cccc(NC(=O)N2CC(=O)N3[C@H](C2)[C@H](c2ccc(C#CC4CCCCC4)cc2)[C@@H]3CO)c1	1.8
CC(C)NC(=O)N[C@H]1C[C@@H]2O[C@@H](CO)CC[C@@H]2O[C@@H]1CCc1ccc(-c2ccc(F)cc2)cc1	-1.7
O=C1CN(S(=O)(=O)c2cccc(F)c2)C[C@H]2[C@@H](c3ccc(-c4ccccc4)cc3)[C@@H](CO)N12	0.7

Gathered by group, those above containing an NH in an aromatic ring
SMILES	MLL AF4-AF9 inh
COCC(=O)N1CC2(C1)CN(Cc1cccc(OC)c1)[C@H](CO)c1[nH]c3cc(OC)ccc3c12	2.2
Nc1[nH]c(C(=O)c2ccccc2)c(-c2ccc(F)cc2)c1C(=O)c1c[nH]c2ccccc12	-2.8

Part of the list above in order of number of heavy atoms, falling.
SMILES	MLL AF4-AF9 inh
COc1ccccc1NC(=O)N1C[C@@H]2N[C@H](C1)C2c1ccc(-c2cccc(C(=O)N(C)C)c2)cc1 (some centres not stated)	-3.6
O=C(C1CC1)N1CC(=O)N2[C@H](C1)[C@@H](c1ccc(C#Cc3cccc(F)c3)cc1)[C@@H]2CO	-2.1
CO[C@@H]1CN(C)C(=O)c2ccc(NC(=O)CC(F)(F)F)cc2OC[C@H](C)NC[C@H]1C	-16.2

Additional results
SMILES	MLL AF4-AF9 inh
CN1C(=O)c2cc(NC(=O)C3CC3)ccc2OC[C@@H]2O[C@H](CC(=O)O)CC[C@@H]21	-1.9
CCCNC(=O)c1cc2c(c(-c3cccc(-c4ccncc4)c3)n1)[C@H](CCO)N(S(=O)(=O)CC)C2	-1.5
COCC(=O)N1CC2(C1)[C@H](c1ccc(-c3cccc(C)c3)cc1)[C@@H](CO)N2C(=O)C1CC1	-10.1
CCC(=O)N1[C@H](CO)[C@H](c2ccc(-c3cncnc3)cc2)[C@@H]1CN(C)C(C)=O	-5.7
CCCN1C[C@@H](C)[C@@H](OC)CN(C)C(=O)c2cc(NC(=O)c3ccccc3)ccc2OC[C@H]1C	1.7
Cc1[nH]nc2c1C(c1ccc3c(c1)OCO3)N(Cc1ccccc1)C2=O (configuration not stated)	1.1
Cc1ccc(S(=O)(=O)N(C)C[C@@H]2OCCCC[C@H](C)Oc3ccc(NC(=O)c4ccncc4)cc3C(=O)N([C@@H](C)CO)C[C@H]2C)cc1	-0.9
CCC(=O)Nc1ccc2c(c1)OC[C@H](C)N(Cc1cncnc1)C[C@H](C)[C@H](OC)CN(C)C2=O	0.0
CNC[C@H]1Oc2ccc(NS(C)(=O)=O)cc2CC(=O)N([C@H](C)CO)C[C@@H]1C	4.1
O=C1CNC[C@H]2[C@H](c3ccc(C4=CCCC4)cc3)[C@H](CO)N12	0.2
O=C(c1ccccc1)N1CC(=O)N2[C@H](CO)[C@@H](c3ccc(-c4ccccc4)cc3)[C@H]2C1	3.1
CN(C)c1ccc2c(c1)[C@@H]1C[C@@H](CC(=O)N3CCCCC3)O[C@H](CO)[C@@H]1O2	-0.8
CCc1nc(N2[C@H](C#N)[C@@H](c3ccccc3-c3ccccc3C)[C@H]2CO)sc1C	-9.9
O=C(C[C@H]1C=C[C@@H](NS(=O)(=O)c2ccccc2)[C@@H](CO)O1)N1CCN(c2ccccc2)CC1	-3.0
